gsp ag: agonists of gsp mutant (McCune-Albright syndrome); gsp mutant cells, cAMP HTRF, 30 min; control for the full effect not named in the record; 0.13% of 340,000 active; Potency, µM (doses to about 76.9 µM), for the others: top-dose activation (cAMP increase), actives largely listed as activators; AID 624287; active = well fitted activation curve with a large enough effect; inconclusive = small, poorly fitted or top-dose-only effect, or another doubt; inactive = no such curve, though single readings can be large or run the other way; cell line not stated here;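 further: phosphodiesterase inhibitor Ro 20-1724 added with compounds to block cAMP breakdown; potency means the concentration at half of the fitted maximal effect; nearly all actives have a fitted effect of over 60% in size; about a fifth of the inactives were tested at one dose only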
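Cells in DMEM/10% FBS with G418 were pretreated with compounds in DMSO plus […] (300 uM stock) for 30 min at 37C. cAMP was measured by HTRF (cAMP-d2 plus anti-cAMP antibody-K) after 30 min at room temperature.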
TRPML1 inh: blocks the human TRPML1 channel; Q9GZU1; TRPML1-inducible cells, Ca2+ dye fluorescence, FDSS; hits give low values; inhibition of EC80 agonist-evoked calcium signal; activity change, negative = inhibition, % (no concentration beside the values); 0.02% of 390,000 active; in the data active means activity change below about -50%; inconclusive means about -30% to -50%; inactive means above about -30%;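 further: stimulus is agonist 54-4 at its EC80 concentration; on the % scale 0 is the no-effect control and ±100 the full control effect; compound concentration not given in the record; the text of the record puts the active cut at -80%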
Target sequence (Q9GZU1 whole entry, looked up): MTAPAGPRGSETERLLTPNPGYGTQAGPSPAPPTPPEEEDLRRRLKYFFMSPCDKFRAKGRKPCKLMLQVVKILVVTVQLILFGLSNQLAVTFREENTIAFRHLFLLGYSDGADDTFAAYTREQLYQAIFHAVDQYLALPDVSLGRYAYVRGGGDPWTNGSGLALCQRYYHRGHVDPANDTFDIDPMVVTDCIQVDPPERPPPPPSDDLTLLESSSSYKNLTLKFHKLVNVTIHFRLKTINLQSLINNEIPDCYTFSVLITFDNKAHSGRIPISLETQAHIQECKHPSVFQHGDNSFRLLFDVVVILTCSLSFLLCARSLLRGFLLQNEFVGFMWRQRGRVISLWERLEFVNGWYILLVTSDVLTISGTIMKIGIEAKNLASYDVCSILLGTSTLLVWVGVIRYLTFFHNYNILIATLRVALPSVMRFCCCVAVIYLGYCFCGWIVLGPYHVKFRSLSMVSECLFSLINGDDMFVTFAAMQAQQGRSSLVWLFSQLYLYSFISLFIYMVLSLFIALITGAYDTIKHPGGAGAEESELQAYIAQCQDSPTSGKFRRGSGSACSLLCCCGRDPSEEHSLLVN
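Calcium fluorescence in TRPML1-DL cells induced overnight with Tet: a 110 s read after compound pin addition, then a 110 s antagonist read after challenge with 54-4 at 4 uM final (EC80).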
gsp antag: gsp mutant antagonism; gsp-mutant cells, cAMP HTRF, 30 min; control for the full effect not named in the record; Potency, µM (titrated, usually from 76.9 µM), inactives show top-dose activity change, negative = inhibition, hits mostly inhibitors; 0.4% of 340,000 active; active = falling curve of any shape with a large fitted effect; inconclusive = falling curve, mostly with a smaller effect; inactive = flat or rising curve; cell line not stated here;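 further: intracellular cAMP measured with PDE inhibitor Ro 20-1724 present during compound exposure; potency means the concentration at half of the fitted maximal effect; on the % scale 0 is the no-effect control and ±100 the full control effect; nearly all actives have a fitted effect of over 65% in size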
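Measurement of cellular cAMP by homogeneous time-resolved fluorescence following a 30 min compound exposure at 37C. The PDE inhibitor […] was present throughout; the assay buffer was DPBS with 0.05% BSA and 0.005% Tween 20.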
ClpP mod: qHTS Assay for Activators of ClpP; ATP-dependent Clp protease proteolytic subunit (Bacillus subtilis (strain 168)), P80244; purified B. subtilis ClpP, FRET peptide cleavage, 20 min; Potency, µM (doses to about 57.5 µM), for inactives: at the highest dose activity change, negative = active; 1.9% of 340,000 active; AID 651965, 2013; active = well fitted falling curve with a large enough effect; inconclusive = small, poorly fitted or top-dose-only effect; inactive = no such curve, though single readings can be large or run the other way; further: potency means the concentration at half of the fitted maximal effect; the source files actives as falling curves though it sought activators and does not explain the sign; nearly all actives have a fitted effect of over 65% in size; many hits overshoot -100%
Target sequence (P80244 whole entry, looked up): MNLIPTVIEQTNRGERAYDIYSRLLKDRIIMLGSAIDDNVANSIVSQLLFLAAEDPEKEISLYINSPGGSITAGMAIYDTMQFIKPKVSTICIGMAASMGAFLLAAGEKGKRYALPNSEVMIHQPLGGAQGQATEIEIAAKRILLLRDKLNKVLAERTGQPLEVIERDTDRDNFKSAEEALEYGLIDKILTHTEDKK
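ClpP 10 microg/mL final, pH 8 Tris/KCl buffer with BSA, glycerol, Tween-20; compound pinned in; FRET-FV substrate; RT 20 min; Ex320/Em430; ΔFRET vs ADEP 5.8 microM, DMSO, no enzyme.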
Numbers without * were called inactive; ? = inconclusive; . = not tested or not shown; [ ] = another dose, or the depositor's remark. An excerpt; count on the stated rates, not on these rows.

SMILES | gsp ag | TRPML1 inh | gsp antag | ClpP mod
CC(C)NC(=O)N(C)C[C@@H]1OCc2ccccc2-c2c(n(C)c3ccccc23)C(=O)N([C@@H](C)CO)C[C@@H]1C | 30% | . | . | 1.7%
O[C@@H]1C[C@H](c2ccccc2)N(CC2CCCCC2)C[C@H]1n1cc(C2CC2)nn1 | -1% | . | . | -0.8%
CC[C@H](C)[C@H]1CNC(=S)N1CC1CCN(CC)CC1 | -22% | . | . | 2.0%
COc1ncnc2c1ncn2CCCN1CCN(c2ccccn2)CC1 | ? | . | . | -7.5%
COCOCCn1cc(CN2CCS(=O)(=O)N(Cc3ccc(-c4ccccc4)cc3)C(CC(C)C)C2=O)nn1 (stereo not drawn) | -37%[inhibitor] | . | . | -0.4%
O[C@H]1C[C@H](c2ccccc2)N(Cc2cccs2)C[C@@H]1n1cc(C2CC2)nn1 | -23% | . | . | 2.3%
O=c1cc(CCc2ccccc2)oc2cccc(O)c12 | . | . | -8% | 0.7%
COc1ccc(CCNC(=O)COc2cc(C)cc3oc(=O)c(C)c(C)c23)cc1OC | . | . | 4% | -6.7%
CCCCCCCCC(=O)O | . | . | 4% | 0.7%
Cc1cc2c(c(C)c1CCO)C(=O)[C@H](C)C2 | . | . | 8% | 2.0%
COC1=CC(=O)C=C(OC)C1(O)CC(C)=O | . | . | 3% | -0.1%
C=CCC12C=C(OC)C(=O)OC(OC)(C1O)[C@H](c1ccc3c(c1)OCO3)[C@H]2C (stereo partly drawn) | . | . | 7% | 1.1%
O=c1[nH]snc1-c1c(Cl)cccc1Cl | . | . | -3% | -0.4%
CN1CC[C@@]2([C@@]34CCN(C)C3Nc3ccccc34)c3ccccc3NC12 (stereo partly drawn) | . | . | 9% | -0.2%
COCOc1ccc(-c2cc(=O)c3c(OCOC)cc(OCOC)cc3o2)cc1 | . | . | -7% | 4.7%
COc1cccc(C(N)=O)c1 | . | . | 5% | -0.1%
COCOc1ccc(C2CC(=O)c3c(OCOC)cc(OCOC)cc3O2)cc1 (stereo not drawn) | . | . | -3% | -9.6%
Cc1cc(O)c2c(c1O)C(=O)[C@]13C(=C2O)C(=O)[C@@H]2[C@@H](O)[C@H]1[C@@H]1[C@H](O)[C@H]3C(=O)C3=C(O)c4c(O)cc(C)c(O)c4C(=O)[C@]312 | . | . | 2% | -2.2%
COc1c2c(c(CCC(=O)O)c3c1C=CC(C)(C)O3)OC(C)(C)C=C2 | . | . | -8% | 0.5%
C=C(C)C(O)Cc1c(OC)ccc(C(=O)/C=C/c2ccc(O)cc2)c1O (stereo not drawn) | . | . | ? | -1.1%
COCOc1ccc(C=O)c(OCOC)c1 | . | . | 6% | -7.1%
O=C(O)C(c1ccccc1)c1ccccc1 | . | . | 0% | -2.5%
COCOc1ccc(-c2oc3c(C/C=C(\C)CCC=C(C)C)ccc(O)c3c(=O)c2OCOC)c(OCOC)c1 | . | . | 13% | -1.4%
O=C(Nc1ccccc1OC(=O)c1ccccc1)c1ccccc1 | . | . | 9% | 0.5%
CC1(C)C=Cc2c(ccc3c2OC[C@@H](c2ccc(O)cc2O)C3)O1 | . | . | -8% | -0.3%
The list goes on:
SMILES | gsp ag | TRPML1 inh | gsp antag | ClpP mod
S=C1NCCC12C(=S)Nc1ccccc12 (stereo not drawn) | . | . | 9% | -1.0%
C=CC[C@]12C[C@@H](OC)C(=O)C=C1O[C@@H](c1ccc(OC)c(OC)c1)[C@H]2C | . | . | ? | -1.2%
COc1ccc(-c2coc3cc(OC(C)=O)c(OC)cc3c2=O)cc1 | . | . | -18% | 34%
COc1ccc2ccc(=O)oc2c1CC(=O)C(C)C | . | . | 7% | 4.8%
COc1cc(NC(=O)c2sc3nc4n(c(=O)c3c2C)CCCCC4)cc(OC)c1OC | . | 2 | . | 1.4%
CC(C)CN(CC(C)C)S(=O)(=O)c1ccc(C(=O)Nc2sc3c(c2C(N)=O)CCN(C(C)C)C3)cc1 | . | 5 | . | 2.5%
CCOc1ccccc1CNC(=O)c1cnn(-c2ccc(C)cc2)c1-n1cccc1 | . | -15 | . | -3.9%
COc1ccc(OC)c(NC(=O)c2sc3nc4c(cc3c2N)CCCCCC4)c1 | . | -14 | . | ?
O=C(CSC1=Nc2ccccc2N=C(c2ccc(F)cc2)C1)Nc1ccc(Cl)cc1 | . | -8 | . | 3.5%
CCN(c1ccccc1)c1ccc2cc(S(=O)(=O)N3CCCC3)ccc2n1 | . | 18 | . | -14%
Cc1cc(C)c(NC(=O)CSc2nc(-c3ccc(F)cc3)nc3c2Cc2c(CO)cnc(C)c2O3)c(C)c1 | . | -12 | . | 0.0%
Cc1ccccc1C(=O)Nc1sc2c(c1C(=O)N1CCCCC1)CCC(C(C)(C)C)C2 (stereo not drawn) | . | -21 | . | -23%
Cc1cccc(NC(=O)C2CCCN(S(=O)(=O)c3ccc4c(c3)CCCC(=O)N4)C2)c1 (stereo not drawn) | . | 3 | . | 0.9%
CN(C)c1ccc(CNC(=O)C2COc3ccccc3C2)cc1 (stereo not drawn) | . | 18 | . | -3.6%
COC(=O)CS(=O)(=O)c1nc2ccccc2nc1N1CCCCC1 | . | 22 | . | -0.8%
CC(C)COc1ccc(C(=O)Nc2onc3c2CCCC3)cc1 | . | -6 | . | -0.9%
Cc1ccc2oc(=O)n(CCNC(=O)Nc3ccccc3Cl)c2c1 | . | 7 | . | -2.0%
COc1ccc2c(c1)CC(C(=O)NCCCN1CCN(c3cccc(Cl)c3)CC1)CO2 (stereo not drawn) | . | 30 | . | -4.2%
Clc1ccccc1N1CCN(Cc2nnc(-c3ccccc3)o2)CC1 | . | -20 | . | -0.3%
O=C(NCCSc1c(-c2ccc(Br)cc2)[nH]c2ccccc12)c1ccc(S(=O)(=O)N2CCOCC2)cc1 | . | -10 | . | -2.0%
Cc1ccc(CNC(=O)CSc2nc3ccccc3nc2Cc2ccc(C)cc2)cc1 | . | 9 | . | -1.7%
COc1cc2c(=O)c(C(=O)c3ccc(C)c(C)c3)cn(Cc3ccc(F)cc3)c2cc1OC | . | -17 | . | 0.3%
Cc1c(Cl)cccc1NC(=O)Cn1nnc2sc3c(c2c1=O)CCCC3 | . | 0 | . | -1.0%
COc1ccc(CCNC(=O)CSc2cn(CCNC(=O)c3ccc(OC)c(OC)c3)c3ccccc23)cc1OC | . | -11 | . | -1.6%
Cc1ccc(CNC(=O)Cn2c(=O)ccc3cc(S(=O)(=O)N4CCC(C)CC4)ccc32)cc1 | . | 15 | . | -12%

6 neighbouring compounds already listed, quoted:
SMILES | gsp ag | TRPML1 inh | gsp antag | ClpP mod
O=C(NCCSc1c(-c2ccc(Br)cc2)[nH]c2ccccc12)c1ccc(S(=O)(=O)N2CCOCC2)cc1 | . | -10 | . | -2.0%
Cc1ccc(CNC(=O)CSc2nc3ccccc3nc2Cc2ccc(C)cc2)cc1 | . | 9 | . | -1.7%
COc1cc2c(=O)c(C(=O)c3ccc(C)c(C)c3)cn(Cc3ccc(F)cc3)c2cc1OC | . | -17 | . | 0.3%
Cc1c(Cl)cccc1NC(=O)Cn1nnc2sc3c(c2c1=O)CCCC3 | . | 0 | . | -1.0%
COc1ccc(CCNC(=O)CSc2cn(CCNC(=O)c3ccc(OC)c(OC)c3)c3ccccc23)cc1OC | . | -11 | . | -1.6%
Cc1ccc(CNC(=O)Cn2c(=O)ccc3cc(S(=O)(=O)N4CCC(C)CC4)ccc32)cc1 | . | 15 | . | -12%

Continued:
SMILES | gsp ag | TRPML1 inh | gsp antag | ClpP mod
CC(C)c1ccc(S(=O)(=O)N2CCC(N3CCN(Cc4ccccc4)C(=O)C3=O)CC2)cc1 | . | 7 | . | -1.0%
CCS(=O)(=O)c1ncc(Cl)c(C(=O)N2CCN(c3ccc(OC)cc3)CC2)n1 | . | -25 | . | 0.9%
O=C(O)c1ccc2nc(-c3cc4cc(Cl)ccc4oc3=O)[nH]c2c1 | . | -7 | . | -28%
Cc1ccc(OCC(=O)N(c2ccc(C)cc2)S(=O)(=O)c2ccc(Cl)cc2)cc1 | . | 6 | . | -5.2%
O=C(Cn1ccn(-c2ccc(F)cc2)c(=O)c1=O)Nc1ccccc1C(F)(F)F | . | 21 | . | 0.1%
COc1ccc(CCNC(=O)C2CCN(Cc3nc(-c4ccc(OC)c(OC)c4)oc3C)CC2)cc1OC | . | -11 | . | -8.7%
COc1ccc(Cl)cc1NC(=O)Cn1c2ncccc2c(=O)n1-c1ccc(C)c(C)c1 | . | -14 | . | -9.3%
CCOc1nc(NC(=O)NS(=O)(=O)Oc2cccc(F)c2)nc(-c2ccccc2)n1 | . | -6 | . | 0.6%
CCn1c(=N)c(C(=O)NCc2ccccc2)cc2c(=O)n3cccc(C)c3nc21 | . | -4 | . | 3.8%
Cc1ccc(NC(=O)C(c2ccccc2)N2Cc3ccccc3C2=O)cc1Cl (stereo not drawn) | . | -7 | . | 2.4%
CCc1ccccc1NC(=O)C(=O)NCCc1sc(-c2cccc(F)c2)nc1C | . | -15 | . | 22%
COc1ccc(NC(=O)c2cc(S(=O)(=O)N3CCCCCC3)cn2C)cc1Cl | . | -3 | . | ?
CCOc1ccccc1CNC(=O)c1ccc2nc(Cc3ccc(OC)cc3)oc2c1 | . | 20 | . | -17%
CCOc1ccc(Nc2nc(C)c(NC(=O)c3cccc(OC)c3)c(Nc3ccc(OCC)cc3)n2)cc1 | . | 21 | . | -4.1%
COc1ccc(C)cc1NC(=O)Nc1cc(C(=O)NCc2ccc(C)cc2)ccc1N1CCCC1 | . | -2 | . | -2.6%
O=C(CCC1N=C2c3ccccc3N=C(SCc3cccc(Cl)c3)N2C1=O)NCc1cccs1 (stereo not drawn) | . | 1 | . | -4.1%
O=S(=O)(c1ccc(Cl)cc1)c1nnn2c1nc(N1CCCCC1)c1sccc12 | . | -7 | . | -3.6%
O=C(COc1ccc(Cl)cc1)OCc1cc(=O)n2nc(C3CC3)sc2n1 | . | 5 | . | -5.2%
CC(C)C1N=C2c3ccccc3N=C(SCC(=O)NCc3ccc(F)cc3)N2C1=O (stereo not drawn) | . | 28 | . | 4.3%
Cc1ccc(C)c(CSc2cn(CCNC(=O)c3cccs3)c3ccccc23)c1 | . | -13 | . | -2.9%
CCN(CC)S(=O)(=O)c1ccc2nc(NC(=O)c3ccc(Br)o3)sc2c1 | . | 3 | . | -3.5%
O=C(CCS(=O)(=O)c1cc2c(cc1Cl)NC(=O)CO2)NCc1ccc(Cl)cc1 | . | 10 | . | -0.6%
O=C(Cc1csc2nc(-c3ccc(F)cc3)cn12)NCc1ccccc1 | . | -6 | . | -2.5%
COc1ccc(OC)c(-n2cnc3cc(C(=O)NC4CCCC4)ccc32)c1 | . | -16 | . | -1.1%
COc1cccc(NS(=O)(=O)c2ccc(-c3cc(C)no3)s2)c1 | . | -22 | . | 1.0%
The results go on:
SMILES | gsp ag | TRPML1 inh | gsp antag | ClpP mod
COc1cccc(NC(=O)c2c(N3CCCC3=O)c3cc(C)ccc3n2C)c1 | . | 12 | . | -8.5%
CCOC(=O)c1ccccc1NC(=O)CN(c1cccc(C)c1C)S(=O)(=O)c1ccccc1 | . | 35 | . | ?
O=C1CS(=O)(=O)C2(C(=O)Nc3ccccc32)N1c1cccc(Cl)c1 (stereo not drawn) | . | 7 | . | 2.9%
COc1cccc2sc(N(Cc3cccnc3)C(=O)COc3ccccc3)nc12 | . | 48 | . | -13%
Cc1ccccc1-c1noc(-c2ccc(NC3CCCC3)c([N+](=O)[O-])c2)n1 | . | 0 | . | 1.0%
Cc1ccccc1C(=O)Nc1cccc(-c2cn3cccnc3n2)c1 | . | 5 | . | 3.9%
CCc1nc2c(OCc3ccc(C(=O)OC)cc3)cccn2c1N(C)C(=O)c1ccc(OC)cc1 | . | 3 | . | -4.2%
CCCCOC(=O)c1ccc(NC(=O)/C(C#N)=C/c2ccc(-c3ccccc3)o2)cc1 | . | 0 | . | 1.2%
O=C(Cn1c(=O)ccc2cc(S(=O)(=O)N3CCCC3)ccc21)Nc1ccc(Cl)cc1 | . | 2 | . | 8.0%
